Source: PubChem BioAssay
D2 agonist – Beta-Arrestin HTS for Positive Allosteric Modulators of the Human D2 Dopamine Receptor: Agonists; actives 0.084% (n = 360,000); DiscoveRx PathHunter D2 beta-arrestin, luminescence, 90 min; 100% = 57 uM dopamine signal; activation, % (test concentration not listed); D(2) dopamine receptor (Homo sapiens), P14416; in the data active = activation above about 40%; inconclusive = about 15% to 40%; inactive = below about 15%; note: compound concentration not given in the record; the text of the record calls up to 30% inactive
Target sequence (P14416 whole entry, looked up): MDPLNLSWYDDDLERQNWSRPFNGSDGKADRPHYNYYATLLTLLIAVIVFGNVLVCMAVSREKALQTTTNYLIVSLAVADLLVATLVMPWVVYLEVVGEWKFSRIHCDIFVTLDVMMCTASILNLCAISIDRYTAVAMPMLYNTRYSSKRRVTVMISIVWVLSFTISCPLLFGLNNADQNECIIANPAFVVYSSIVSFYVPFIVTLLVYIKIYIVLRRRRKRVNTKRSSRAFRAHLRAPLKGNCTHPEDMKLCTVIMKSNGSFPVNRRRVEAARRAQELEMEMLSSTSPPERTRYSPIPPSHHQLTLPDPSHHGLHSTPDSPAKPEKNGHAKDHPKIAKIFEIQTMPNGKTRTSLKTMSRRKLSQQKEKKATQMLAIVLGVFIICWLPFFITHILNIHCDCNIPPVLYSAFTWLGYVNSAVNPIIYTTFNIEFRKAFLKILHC
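Agonist mode: compounds alone added to overnight-plated D2 PathHunter cells for 90 min at 37 C, with 57 uM final dopamine (EC100) defining full response. Beta-arrestin recruitment detected by chemiluminescent reagent, read after 1 h at ambient temperature.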
Six1-Eya2 blk – qHTS Assay for Inhibitors of the Six1/Eya2 Interaction | Homeobox protein SIX1 (Homo sapiens) + Protein phosphatase EYA2 (Homo sapiens), … | AlphaScreen GST-Six1/His-Eya2 binding, biochemical; hits give low values; control for the full effect not named in the record | AID 651725, 2012 | actives 0.56% (n = 360,000) | activity change, % (concentration not given with the values); in the data active = activity change below about -65%; inconclusive = about -30% to -65%; inactive = above about -30%; note: % is set by controls: 0 for no effect and ±100 for the full control effect
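AlphaScreen with GST-Six1 and His-Eya2 (5X mix: 250 nM and 500 nM), glutathione donor and nickel acceptor beads; buffer 50 mM Tris pH 8.0, 300 mM NaCl, 1 mM TCEP; 1 h at 37 C in the dark.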
CtBP-E1A inh – qHTS Assay for Inhibitors of the CtBP/E1A Interaction. CtBP / adenovirus E1A interaction (AlphaScreen). AlphaScreen GST-E1A/His-CtBP binding, 1536-well; hits give low values; control for the full effect not named in the record. activity change, % (test concentration not listed). actives 0.49% (n = 340,000). AID 651724, 2012; in the data active means activity change below about -65%; inconclusive means about -30% to -65%; inactive means above about -30%; note: % is set by controls: 0 for no effect and ±100 for the full control effect; compound concentration not given in the record
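Steps: dispense buffer (Tris pH 8.0, NaCl 300 mM, TCEP 1 mM, BSA, Tween 20); add 5X protein mix (GST-E1A, His-CtBP, 125 nM each); pin 23 nL compound; 2 h at 37 °C, dark; add 5X beads (50 ug/mL); 1 h; read.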
gsp ag – qHTS for Agonist of gsp, the Etiologic Mutation Responsible for Fibrous Dysplasia/McCune-Albright Syndrome: qHTS; Potency, µM (series often up to 76.9 µM), for the others: at the top dose activation (cAMP increase), actives largely listed as activators; gsp mutant cells, cAMP HTRF, 30 min; control for the full effect not named in the record; actives 0.13% (n = 340,000); AID 624287, 2012; active = well fitted activation curve with a large enough effect; inconclusive = small, poorly fitted or top-dose-only effect, or another doubt; inactive = no such curve, though single readings can be large or run the other way; cell line not stated here;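 note: phosphodiesterase inhibitor Ro 20-1724 added with compounds to block cAMP breakdown; potency is the fitted concentration of half-maximal effect; nearly all actives have a fitted effect of over 60% in size; about a fifth of the inactives were tested at one dose only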
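Cells in DMEM/10% FBS with G418 were pretreated with compounds in DMSO plus […] (300 uM stock) for 30 min at 37C. cAMP was measured by HTRF (cAMP-d2 plus anti-cAMP antibody-K) after 30 min at room temperature.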
gsp antagonist – qHTS for Antagonists of gsp, the Etiologic Mutation Responsible for Fibrous Dysplasia/McCune-Albright Syndrome: qHTS. gsp-mutant cells, cAMP HTRF, 30 min; control for the full effect not named in the record. Potency, µM (doses to about 76.9 µM), for inactives: top-dose activity change, negative = inhibition, actives largely listed as inhibitors. actives 0.4% (n = 340,000). AID 624288, 2012; active = falling curve of any shape with a large fitted effect; inconclusive = falling curve, mostly with a smaller effect; inactive = flat or rising curve; cell line not stated here;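 note: intracellular cAMP measured with PDE inhibitor Ro 20-1724 present during compound exposure; potency is the fitted concentration of half-maximal effect; % is set by controls: 0 for no effect and ±100 for the full control effect; nearly all actives have a fitted effect of over 65% in size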
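HTRF cAMP read-out (cAMP-d2 plus anti-cAMP antibody-K in lysis buffer, 30 min RT). Before lysis, cells are exposed to compounds with […] for 30 min at 37C in DPBS containing Ca/Mg, BSA and Tween 20.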
D2 potentiator – Beta-Arrestin HTS for Positive Allosteric Modulators of the Human D2 Dopamine Receptor: Potentiators. DiscoveRx D2 beta-arrestin cells, luminescence, 90 min; 100% = 57 uM dopamine signal. potentiation, % (test concentration not listed). actives 0.23% (n = 360,000). AID 624464, 2012; active = potentiation of 50% or more; inconclusive = 30% to 50%; inactive = 30% or less;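 note: compound concentration not given in the record; tested on top of an EC20 dose of dopamine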
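PathHunter beta-arrestin assay in DiscoveRx D2 cells. Compounds were added with an EC20 of dopamine (50 nM final) for 90 min at 37 deg C. Luminescence was read 1 h after detection reagent, with 57 uM dopamine as the EC100 control.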
* hit, by the source's call; ? = inconclusive; . = no result given; [ ] = another dose, or the depositor's remark. This is a random part of the collection, and some 1.4% of all compounds hit somewhere here.

SMILES	D2 agonist	Six1-Eya2 blk	CtBP-E1A inh	gsp ag	gsp antagonist	D2 potentiator
[O-]/C(=C(\C(=S)NCc1ccccc1)[n+]1ccccc1)c1ccc(Cl)cc1	-3.4	-12	-7	-4%[15.4 µM]	2%	-13
O=c1[nH]cnc2c1c(-c1ccccc1)cn2-c1ccc(Br)cc1	-8.1	1	-23	18%[15.4 µM]	-22%	-15
CC1Cc2ccccc2N1C(=O)C1CC(=O)N(c2ccccc2)C1 (stereo not drawn)	-1.3	10	1	?	-1%	-9
COc1ccc(SCCN2CC[C@@H](C(C)(C)C)CCC2=O)cc1	1.4	-1	1	-3%	-12%	-4
CCOC(=O)c1c(CC(C)C)csc1/N=C/C1C(=O)CCCC1=O	1.8	4	3	3%[15.4 µM]	-31%	-1
COc1cc(SC)ccc1C(=O)Nc1ncc(Cl)cc1Cl	0.0	5	7	24%[15.4 µM]	15%	-7
O=C(CCCCCN1C(=O)CCC1=O)Nc1ncn[nH]1	0.2	-4	14	6%	8%	0
Cc1ccc(NC(=O)CSc2nnc(-c3cnccn3)n2C)cc1C	-3.2	-1	-1	?	4%	-12
CN(C)CCn1c(=S)[nH]c2ncccc2c1=O	1.4	3	4	0%[15.4 µM]	-1%	2
Fc1ccc(CN2CCCCCCC2)c(F)c1	-7.3	0	11	-44%[inhibitor]	4%	-10
Cn1cccc1/C=C1\SC(=S)N(CC(=O)O)C1=O	-6.7	-1	22	-9%	-7%	-16
O=C(NNC(=O)c1ccncc1)Nc1cc(Cl)ccc1Cl	2.0	2	-1	-7%	-4%	-12
COc1ccc(OC)c(NC(=O)CSc2nccn2Cc2ccco2)c1	0.0	-9	-5	-4%	16%	-9
Cn1c(=O)cc(OCC(=O)NCCCN2CCN(c3ccccc3F)CC2)c2ccccc21	45*	-8	-1	?	10%	?
CN1C2=C(C#N)C(c3ccccc3)(C(F)(F)F)NC(=O)N2c2ccccc21 (stereo not drawn)	1.8	-2	14	9%	18%	6
Cc1noc(C)c1S(=O)(=O)Nc1ccc(C#N)cc1	-3.5	-1	2	-13%	-8%	-3
O=C(CSc1ccccc1)Nc1cccc(S(=O)(=O)N2CCOCC2)c1	-0.8	0	.	5%	3%	1
CCn1c(=O)cc(OCC(=O)NCCCN2CCN(c3cccc(Cl)c3)CC2)c2ccccc21	14	?	?	28%	-16%	?
O=C(NCC(c1ccccc1Cl)N1CCCC1)C1CCN(C(=O)Nc2ccccc2)CC1 (stereo not drawn)	5.7	0	6	13%	12%	-3
COc1ccc(C(=O)/C=C/c2ccc(OC3CSC3)cc2)cc1OC	-3.6	-4	1	-12%[15.4 µM]	-15%	-7
O=C(Nc1ccc(C(=O)N2CCCC(CO)C2)cc1)c1ccc(Br)o1 (stereo not drawn)	-0.3	-1	3	.	4%	-14
Cc1ccc(CNc2ccc(N3C(=O)CC(C)C3=O)cc2[N+](=O)[O-])cc1 (stereo not drawn)	0.1	?	-1	-11%	14%	-14
COCc1c(C(=O)N2CCN(Cc3ccc(C#N)cc3)CC2)oc2ccccc12	-3.5	2	-1	3%	-8%	-4
C=CCn1c(SCC(=O)N(C)C2CCCCC2)nnc1C1CC1	-2.7	-5	3	-3%[15.4 µM]	7%	4
O=C(COc1ccc(Cl)cc1Cl)Nc1ccccc1NS(=O)(=O)c1cccs1	3.1	-3	-3	-28%	-12%	-2
CC(C)Oc1ccc(F)cc1-c1cc(C(=O)NC2CCCCC2)[nH]n1	-3.2	-5	-1	.	.	-8
CCOC(=O)c1cc(-c2ccc(OC)cc2OC)nn1-c1ccc(C(=O)O)cc1	3.2	-8	.	?	-15%	-12
Cc1noc2ncnc(N3CCN(c4ccc(F)cc4)CC3)c12	4.4	1	.	18%	-7%	-11
COc1c(Cl)ccc(Cl)c1C(=O)NC(=S)N1CCOCC1	0.7	2	-21	19%	7%	-3
Cc1occc1C(=O)O/N=C(\N)c1ccccc1	12	-1	-5	-1%[15.4 µM]	3%	20
CC(C)CNc1ncnc2c1cnn2Cc1ccccc1Cl	5.9	11	7	-38%[inhibitor][15.4 µM]	-6%	2
O=C(CS(=O)(=O)c1ccccc1)Nc1nc(-c2ccc(F)cc2)cs1	-2.6	0	8	9%	-4%	-1
CC(C)CCNC(=O)C1CCN(S(=O)(=O)c2ccc(-n3cnnn3)cc2)CC1	4.5	9	-14	-2%[15.4 µM]	-10%	-6
CC(C(=O)Nc1nccs1)N1C(=O)c2ccccc2S1(=O)=O (stereo not drawn)	-1.9	1	2	5%[15.4 µM]	8%	-31
CC(=O)c1cnc(Nc2ccc(C)cc2)s1	-2.8	5	5	-32%[inhibitor]	1%	-4
CCCCNc1c(-c2ccc(-c3ccc(OC)cc3)c(OC)c2)nc2ccccn12	13	-7	-10	.	-14%	7
CCCn1c(NC(=O)C2COc3ccccc3O2)nc2ccccc21 (stereo not drawn)	-0.7	2	4	24%	-4%	4
Cc1ccc(N(C)C(=O)CCNC(=O)Cn2cnc3ccccc3c2=O)cc1C	-2.9	-8	-22	-11%[15.4 µM]	13%	-14
C=CCn1c(SCc2ccccc2)nc2c1c(=O)[nH]c(=O)n2C	0.2	-2	.	-77%	7%	21
COC(=O)c1sccc1NC(=S)N1CCCCC1C (stereo not drawn)	-2.8	27	5	1%	-11%	5
CC(C)(C)OC(=O)N1CCC(C(=O)N[C@H](C(=O)O)c2ccccc2)(c2ccccc2)CC1	-4.1	1	.	-16%	-1%	-5
Cc1cc(C)n(CCc2nc(-c3cc4ccccc4o3)cs2)n1	3.7	3	4	-6%	-36%	10
CCOC(=O)C1CCCCN1Cc1ccc(-c2ccccc2)cc1 (stereo not drawn)	-7.2	10	15	-41%[inhibitor]	-3%	-2
O=C(COc1ccc(Cl)cc1)OCC(=O)N1CCCCCC1	-2.2	-6	5	-6%	-8%	-4
CCc1nnc(NC(=O)Cc2ccc(OCc3c(C)noc3C)cc2)s1	0.7	-1	-4	1%	-23%	-6
COc1ccc2c(c1OC)C(=O)N1c3cccc(Cl)c3C(=O)OC21 (stereo not drawn)	-2.3	0	6	-3%	5%	-7
Cc1ccccc1C(C(=O)NCc1ccccc1)N(Cc1ccco1)C(=O)c1ccccn1 (stereo not drawn)	-0.4	0	-6	?	-14%	21
CNC(=O)C12CCC(C)(c3nc4cc(C)c(C)cc4nc31)C2(C)C (stereo not drawn)	3.3	1	9	7%	9%	-7
CN1c2ccccc2C(C)(C)C12C=Nc1c(ccc3ccccc13)O2 (stereo not drawn)	?	-2	16	-27%	-6%	87*
Cc1ccc(C2N(c3ccccc3)C(=S)N3CCCN23)cc1 (stereo not drawn)	-4.8	-1	1	-2%	-1%	4

New compounds follow.
SMILES	D2 agonist	Six1-Eya2 blk	CtBP-E1A inh	gsp ag	gsp antagonist	D2 potentiator
COc1ccc(NC(=O)N2c3ccc(OC)cc3C(C)=CC2(C)C)cc1	3.0	-11	.	20%	-7%	-4
CC(NC(=O)C1CCCN1S(=O)(=O)c1cccc2nsnc12)c1ccccc1 (stereo not drawn)	2.6	6	0	29%	2%	-5
CN(Cc1ccccc1)C(=O)COC(=O)c1ccccc1Nc1ccccc1	-6.7	34	30	-3%[15.4 µM]	-17%	-7
CCOC(=O)C(NC(=O)CC)(Nc1ccc(S(=O)(=O)Nc2cc(C)on2)cc1)C(F)(F)F (stereo not drawn)	0.6	7	4	8%	-11%	8
Cc1ccc(N2CCN(C(=O)CNS(=O)(=O)c3ccc(Br)s3)CC2C)cc1 (stereo not drawn)	-0.8	-16	-7	13%	-3%	12
CCNC(=S)NNC(=O)C1CCN(Cc2ccccc2)CC1	-5.1	-2	-10	-3%[15.4 µM]	-28%	-2
Cc1nc2ccc(NC(=O)c3cc(Cl)ccn3)cc2s1	0.3	-14	-12	-7%	-3%	-5
Cc1ccc(S(=O)(=O)N2CCC(C(=O)NNC(=O)c3ccncc3)CC2)cc1	2.8	1	6	-2%	-1%	-2
N#CC(C#N)=C1C=CC=CN1/C(=C\c1ccco1)C(=O)c1ccc(-c2ccccc2)cc1	-3.6	-21	12	-13%	19%	-31
COC(=O)C1ON2OC(C(=O)OC)C(C(=O)OC)C2C1CC(C)=O (stereo not drawn)	0.6	-6	-19	-31%[inhibitor]	6%	5
Cc1ccc(CN2CCNC(=O)C2CC(=O)O)o1 (stereo not drawn)	-2.8	6	-14	-23%	3%	-4
N/N=C1\CCCc2c1[nH]c1ccc([N+](=O)[O-])cc21	-9.6	-5	-1	-11%[15.4 µM]	0%	-2
CCOC(=O)C1(C)CCN1C(=O)c1ccc(C(C)(C)C)cc1 (stereo not drawn)	-5.6	7	13	.	.	-10
CC1COc2ccccc2N1C(=O)c1ccc(Cl)cc1 (stereo not drawn)	3.7	3	3	-7%[15.4 µM]	8%	-4
COc1ccccc1NC(=O)c1sc2nc(-c3ccco3)ccc2c1N	1.8	5	19	28%	2%	2
C=CCNc1oc(-c2cccc3ccccc23)nc1C#N	1.9	15	10	?	2%	4
CC(C)c1ccc(N(C(=O)CNC(=O)c2ccco2)C(C(=O)NC2CCCC2)c2ccncc2)cc1 (stereo not drawn)	-6.0	-3	-2	?	-4%	-14
CCCCSc1nc(O)cc(=O)n1CC	-2.4	-2	6	?	-18%	-4
Cc1ccc(C2=NN(CC(=O)O)C(=O)CC2)cc1	0.4	6	7	-19%	6%	0
Cc1ccc([C@H]2C[C@H](n3cc(C4CC4)nn3)[C@@H](O)CN2C(=O)C2CCCCC2)cc1	-3.5	7	0	-27%	.	-2

Molecules listed so far that have a cyano group, in the order listed:
SMILES	D2 agonist	Six1-Eya2 blk	CtBP-E1A inh	gsp ag	gsp antagonist	D2 potentiator
CN1C2=C(C#N)C(c3ccccc3)(C(F)(F)F)NC(=O)N2c2ccccc21 (stereo not drawn)	1.8	-2	14	9%	18%	6
Cc1noc(C)c1S(=O)(=O)Nc1ccc(C#N)cc1	-3.5	-1	2	-13%	-8%	-3
COCc1c(C(=O)N2CCN(Cc3ccc(C#N)cc3)CC2)oc2ccccc12	-3.5	2	-1	3%	-8%	-4
N#CC(C#N)=C1C=CC=CN1/C(=C\c1ccco1)C(=O)c1ccc(-c2ccccc2)cc1	-3.6	-21	12	-13%	19%	-31
C=CCNc1oc(-c2cccc3ccccc23)nc1C#N	1.9	15	10	?	2%	4
